UUG fidelity: modulators of yeast start codon fidelity, primary screen, whole organism, S. cerevisiae, single point, plate reader; S. cerevisiae UUG-firefly luciferase reporter, luminescence/redox ratio; activity score, % at 18.7 µM; hit rate 0.13% among 350,000; AID 602363, 2012;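 active = replicate mean at a twofold rise or more, about +100% in these data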;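 also: firefly luciferase made from a UUG start codon reports start codon fidelity; reporter light over untreated wells divided by growth signal over untreated wells; some hits fall short of that in this replicate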
Env fusion inh: inhibitors of HIV-1 Env-driven cell-cell fusion, primary screen, HeLa-JRFL effector, CEM21 target cells, luciferase; inhibition, % at 12.3 µM; hit rate 1.1% among 360,000; AID 651610, 2012;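 active = mean replicate inhibition score of at least 50 and every replicate individually at or above 50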;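 also: 0% = plate neutral controls and 100% = maraviroc near 300 nM; one replicate is shown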
* hit, by the source's call; & = joins results of further samples; [ ] = remark or other dose. Only part of the results is shown, so the mix of outcomes need not match the whole.

structure	UUG fidelity	Env fusion inh
COc1ccccc1CNC(=O)C[C@H]1C[C@@H]2c3cc(NC(=O)CC4CC4)ccc3O[C@@H]2[C@@H](CO)O1	29.7	27.8[16.7 µM]
CCS(=O)(=O)NCC[C@H]1CC[C@H](NS(=O)(=O)c2cccc(Cl)c2)[C@@H](CO)O1	-5.2	-6.4[16.7 µM]
COC(=O)C[C@H]1C[C@H]2c3cc(NS(=O)(=O)c4ccc(F)cc4)ccc3O[C@H]2[C@@H](CO)O1	5.2	-31.1[16.7 µM]
C[C@@H]1CN([C@@H](C)CO)C(=O)c2cc(NC(=O)Nc3ccccc3)ccc2O[C@@H]1CN(C)CC1CC1	5.5	-5.3[16.7 µM]
COc1ccccc1-c1cnc2c(c1)C(=O)N([C@H](C)CO)C[C@H](C)[C@H](CN(C)C(=O)c1ccncc1)O2	-9.1	9.0[16.7 µM]
C[C@H]1CCCCO[C@H](CN(C)C(=O)Nc2ccccc2)[C@@H](C)CN([C@@H](C)CO)C(=O)c2cc(NS(=O)(=O)c3cccs3)ccc2O1	-3.2	-12.2[16.7 µM]
C[C@H]1CN([C@@H](C)CO)C(=O)c2cc(C#CC(C)(C)O)cnc2O[C@H]1CN(C)C(=O)C1CCCCC1	15.9	-10.5[16.7 µM]
COCC#Cc1ccc2c(c1)O[C@@H](CN(C)C(=O)C1CCOCC1)[C@@H](C)CN([C@H](C)CO)S2(=O)=O	7.3	-16.0[16.7 µM]
C[C@@H]1CN([C@H](C)CO)C(=O)c2cc(NC(=O)Nc3cccc4ccccc34)ccc2O[C@H]1CN(C)Cc1ccccc1	8.3	8.0[16.7 µM]
C[C@@H]1CN([C@H](C)CO)C(=O)c2cc(NC(=O)Nc3ccc(C(F)(F)F)cc3)ccc2O[C@H]1CN(C)Cc1ccccc1	-4.0	-10.2[16.7 µM]
Cc1noc(C)c1NC(=O)N(C)C[C@H]1OCCCC[C@H](C)Oc2ccc(NS(=O)(=O)c3cccs3)cc2C(=O)N([C@@H](C)CO)C[C@H]1C	-4.1	-3.5[16.7 µM]
O=C(N[C@H]1CC[C@H](CCNC(=O)c2ccccc2F)O[C@@H]1CO)c1cnccn1	-14.7	7.9[16.7 µM]
CN(C)CCCNC(=O)C[C@@H]1CC[C@H]2[C@@H](COc3ccc(NC(=O)NC4CCCC4)cc3C(=O)N2C)O1	4.4	-38.8[16.7 µM]
COCC(=O)N(C)C[C@H]1Oc2cc(C#CCN(C)C)ccc2S(=O)(=O)N([C@@H](C)CO)C[C@@H]1C	-3.0	-15.9[16.7 µM]
C[C@H](NC(=O)C[C@H]1CC[C@H](NC(=O)Nc2ccc3c(c2)OCO3)[C@@H](CO)O1)c1ccccc1	-4.4	0.0[16.7 µM]
C[C@@H]1CCCCO[C@@H](CN(C)C(=O)Nc2ccc3c(c2)OCO3)[C@@H](C)CN([C@H](C)CO)C(=O)c2cc(NS(=O)(=O)c3ccc(Cl)cc3)ccc2O1	-8.9	-40.7[16.7 µM]
CCCC#Cc1ccc2c(c1)O[C@@H](CN(C)CC1CC1)[C@@H](C)CN([C@@H](C)CO)S2(=O)=O	-4.9	-10.5[16.7 µM]
CC(C)NC(=O)N(C)C[C@@H]1Oc2ccc(NS(=O)(=O)c3cccs3)cc2CC(=O)N([C@@H](C)CO)C[C@H]1C	-15.3	-3.6[16.7 µM]
Cc1ccc(S(=O)(=O)Nc2ccc3c(c2)CC(=O)N([C@H](C)CO)C[C@@H](C)[C@H](CN(C)C(=O)Nc2ccc4c(c2)OCO4)O3)cc1	-2.3	11.9[16.7 µM]
C[C@@H]1CN([C@H](C)CO)C(=O)c2cc(NC(=O)Cc3ccccc3)ccc2O[C@H]1CN(C)Cc1ccccc1	-6.4	-1.3[16.7 µM]
C[C@@H]1CN([C@@H](C)CO)C(=O)Cc2cc(NC(=O)Nc3ccc(C(F)(F)F)cc3)ccc2O[C@H]1CN(C)Cc1ccc(Oc2ccccc2)cc1	-5.0	28.2[16.7 µM]
CCNC(=O)Nc1ccc2c(c1)C(=O)N(C)[C@H]1CC[C@H](CC(=O)Nc3ccccc3)O[C@@H]1CO2	-7.7	-5.1[16.7 µM]
C[C@@H]1CCCCO[C@H](CN(C)Cc2ccc(Cl)c(Cl)c2)[C@@H](C)CN([C@H](C)CO)C(=O)c2cc(NS(=O)(=O)c3ccc(F)cc3)ccc2O1	-3.7	-9.7[16.7 µM]
CNC[C@H]1Oc2c(NC(=O)Nc3cccc4ccccc34)cccc2C(=O)N([C@H](C)CO)C[C@@H]1C	-1.2	0.2[16.7 µM]
CN(C)CC(=O)Nc1ccc2c(c1)[C@H]1C[C@@H](CC(=O)NCc3cccc(F)c3)O[C@@H](CO)[C@H]1O2	3.2	-19.7[16.7 µM]

No new results follow: three of the compounds above.
structure	UUG fidelity	Env fusion inh
C[C@@H]1CCCCO[C@H](CN(C)Cc2ccc(Cl)c(Cl)c2)[C@@H](C)CN([C@H](C)CO)C(=O)c2cc(NS(=O)(=O)c3ccc(F)cc3)ccc2O1	-3.7	-9.7[16.7 µM]
CNC[C@H]1Oc2c(NC(=O)Nc3cccc4ccccc34)cccc2C(=O)N([C@H](C)CO)C[C@@H]1C	-1.2	0.2[16.7 µM]
CN(C)CC(=O)Nc1ccc2c(c1)[C@H]1C[C@@H](CC(=O)NCc3cccc(F)c3)O[C@@H](CO)[C@H]1O2	3.2	-19.7[16.7 µM]

New compounds follow.
structure	UUG fidelity	Env fusion inh
CCC(=O)N(C)C[C@@H]1Oc2ncc(-c3ccc(C#N)cc3)cc2C(=O)N([C@H](C)CO)C[C@H]1C	-3.8	-20.5[16.7 µM]
C/C=C/c1cnc2c(c1)C(=O)N([C@H](C)CO)C[C@@H](C)[C@H](CN(C)C(=O)c1cnccn1)O2	-21.8	-23.0[16.7 µM]
COc1ccccc1NC(=O)N[C@H]1CC[C@H](CC(=O)N2CCC(Cc3ccccc3)CC2)O[C@H]1CO	16.6	12.4[16.7 µM]
Cc1ccc(S(=O)(=O)N(C)C[C@@H]2Oc3ccc(NC(=O)Nc4c(C)noc4C)cc3CC(=O)N([C@H](C)CO)C[C@@H]2C)cc1	-15.4	21.8[16.7 µM]
COc1ccccc1S(=O)(=O)N(C)C[C@H]1Oc2cc(/C=C/c3ccccc3)ccc2S(=O)(=O)N([C@H](C)CO)C[C@H]1C	-14.4	-17.0[16.7 µM]
C/C=C/c1cnc2c(c1)C(=O)N([C@H](C)CO)C[C@@H](C)[C@H](CN(C)C(=O)Cc1cccnc1)O2	-11.0	9.2[16.7 µM]
CN1CCN(C(=O)C[C@@H]2CC[C@H]3[C@@H](COc4ccc(NC(=O)C5CC5)cc4C(=O)N3C)O2)CC1	-15.0	0.5[16.7 µM]
C[C@@H]1CCCCO[C@H](CN(C)S(=O)(=O)c2ccc(Cl)cc2)[C@@H](C)CN([C@H](C)CO)C(=O)c2cc(N(C)C)ccc2O1	-3.6	9.1[16.7 µM]
C[C@@H]1CN([C@@H](C)CO)C(=O)c2cc(-c3ccncc3)cnc2O[C@H]1CN(C)C(=O)NC1CCCC1	2.7	-9.9[16.7 µM]
COCC(=O)N(C)C[C@@H]1Oc2ncc(C#Cc3ccncc3)cc2C(=O)N([C@@H](C)CO)C[C@H]1C	3.4	-4.3[16.7 µM]
O=C(N[C@H]1CC[C@@H](CCn2cc(C3(O)CCCC3)nn2)O[C@@H]1CO)C1CCC1	-9.1	3.4[16.7 µM]
CC(C)NC(=O)N[C@@H]1C=C[C@H](CC(=O)NCc2ccc(Oc3ccccc3)cc2)O[C@H]1CO	-9.4	0.6[16.7 µM]
C[C@@H]1CN([C@@H](C)CO)S(=O)(=O)c2ccc(-c3ccccc3)cc2O[C@@H]1CN(C)C(=O)Cc1ccccc1	16.2	-71.1[16.7 µM]
C[C@@H]1CN([C@@H](C)CO)C(=O)Cc2cc(NS(=O)(=O)c3cn(C)cn3)ccc2O[C@H]1CN(C)Cc1ccc2c(c1)OCO2	-16.5	4.0[16.7 µM]
C[C@@H]1CN([C@H](C)CO)C(=O)c2cccc(NS(=O)(=O)c3cccs3)c2O[C@H]1CN(C)S(=O)(=O)c1ccc(Cl)cc1	-6.3	12.7[16.7 µM]
C[C@H](CO)N1C[C@H](C)[C@@H](CN(C)C(=O)NC2CCCCC2)OCCCC[C@H](C)Oc2ccc(NC(=O)Nc3ccc(C(F)(F)F)cc3)cc2C1=O	47.3	-13.8[16.7 µM]
C[C@H]1CCCCO[C@@H](CN(C)C(=O)Nc2ccccc2)[C@@H](C)CN([C@@H](C)CO)C(=O)c2cc(NC(=O)C3CCCCC3)ccc2O1	-19.4	-17.7[16.7 µM]
C[C@@H]1CN([C@H](C)CO)C(=O)c2cc(NC(=O)C3CC3)ccc2O[C@@H]1CN(C)Cc1ccncc1	-11.0	-18.9[16.7 µM]
C[C@H]1CN([C@@H](C)CO)C(=O)c2cc(C#CC3(O)CCCC3)cnc2O[C@@H]1CN(C)C(=O)Cc1ccccc1	11.0	15.7[16.7 µM]
C/C=C/c1cnc2c(c1)C(=O)N([C@@H](C)CO)C[C@@H](C)[C@H](CN(C)C(=O)Nc1c(C)noc1C)O2	3.4	-12.8[16.7 µM]
CO[C@@H]1CN(C)C(=O)c2ccc(NC(=O)C3CCCCC3)cc2OC[C@H](C)N(C(=O)c2ccccc2)C[C@@H]1C	18.4	-48.1[16.7 µM]
O=C(Nc1ccc(F)cc1)N[C@@H]1CC[C@@H](CC(=O)N2CCCCC2)O[C@H]1CO	-5.0	-8.9[16.7 µM]
C[C@@H]1CCCCO[C@@H](CN(C)Cc2ccc3c(c2)OCO3)[C@@H](C)CN([C@H](C)CO)C(=O)c2cc(NC(=O)CCC(F)(F)F)ccc2O1	-8.0	-26.5[16.7 µM]
O=C(C[C@H]1C=C[C@@H](NC(=O)CN2CCOCC2)[C@@H](CO)O1)NCc1cccc(F)c1	-7.6	-19.2[16.7 µM]
C[C@H](CO)N1C[C@H](C)[C@H](CN(C)C(=O)NC2CCCCC2)Oc2ncc(C#CCN(C)C)cc2C1=O	19.9&-1.3	18.6&-7.8[16.7 µM]

Looked up by compound from above, three records:
structure	UUG fidelity	Env fusion inh
C[C@@H]1CCCCO[C@@H](CN(C)Cc2ccc3c(c2)OCO3)[C@@H](C)CN([C@H](C)CO)C(=O)c2cc(NC(=O)CCC(F)(F)F)ccc2O1	-8.0	-26.5[16.7 µM]
CO[C@@H]1CN(C)C(=O)c2ccc(NC(=O)C3CCCCC3)cc2OC[C@H](C)N(C(=O)c2ccccc2)C[C@@H]1C	18.4	-48.1[16.7 µM]
COCC(=O)N(C)C[C@@H]1Oc2ncc(C#Cc3ccncc3)cc2C(=O)N([C@@H](C)CO)C[C@H]1C	3.4	-4.3[16.7 µM]

(listing goes on)
Values in the order: UUG fidelity, Env fusion inh
C[C@@H]1CCCCO[C@@H](CN(C)Cc2ccncc2)[C@@H](C)CN([C@H](C)CO)C(=O)c2cc(NS(=O)(=O)c3ccccc3)ccc2O1
→ -2.5, 5.5[16.7 µM]
COc1ccc(-c2cnc3c(c2)C(=O)N([C@@H](C)CO)C[C@@H](C)[C@H](CN(C)C(=O)Cc2ccncc2)O3)cc1
→ -0.6, 5.1[16.7 µM]
C[C@@H]1CN([C@H](C)CO)C(=O)c2cccc(NC(=O)NC3CCCCC3)c2O[C@@H]1CN(C)C(=O)Nc1ccc2c(c1)OCO2
→ 6.2, 2.7[16.7 µM]
C/C=C/c1cnc2c(c1)C(=O)N([C@H](C)CO)C[C@H](C)[C@@H](CN(C)S(=O)(=O)c1ccc(F)cc1)O2
→ 16.4, 33.6[16.7 µM]
CO[C@@H]1CN(C)C(=O)c2cc(NC(=O)NC3CCCCC3)ccc2OC[C@@H](C)N(C)C[C@H]1C
→ 0.0, 7.8[16.7 µM]
C[C@@H]1CN([C@@H](C)CO)C(=O)c2cc(NS(=O)(=O)c3ccc(Cl)cc3)ccc2O[C@H]1CN(C)S(C)(=O)=O
→ 4.0, 13.1[16.7 µM]
C[C@H]1CN([C@@H](C)CO)C(=O)c2cc(NS(C)(=O)=O)ccc2O[C@H]1CN(C)S(=O)(=O)c1ccccc1
→ -3.9, 19.8[16.7 µM]
CC(=O)N(C)C[C@@H]1Oc2ncc(-c3ccc(C(=O)N(C)C)cc3)cc2C(=O)N([C@H](C)CO)C[C@@H]1C
→ 1.6, 10.5[16.7 µM]
O=C(Nc1ccc2c(c1)[C@H]1C[C@@H](CC(=O)N3CCOCC3)O[C@H](CO)[C@H]1O2)C1CCC1
→ -12.1, -8.3[16.7 µM]
O=C(CN1CCOCC1)NCC[C@H]1CC[C@H](NC(=O)Nc2ccc(C(F)(F)F)cc2)[C@H](CO)O1
→ 2.1, -5.4[16.7 µM]
CN(C)C(=O)C[C@H]1C[C@H]2c3cc(NC(=O)NC4CCCCC4)ccc3O[C@H]2[C@@H](CO)O1
→ 8.9, 15.7[16.7 µM]
C[C@@H]1CN([C@@H](C)CO)C(=O)c2cc(-c3cncnc3)cnc2O[C@H]1CN(C)C(=O)Cc1ccccc1
→ 10.8, 4.0[16.7 µM]
C[C@@H]1CN([C@@H](C)CO)C(=O)c2cc(C#CC(C)(C)O)cnc2O[C@H]1CN(C)C(=O)C1CC1
→ 4.9, -1.9[16.7 µM]
CO[C@@H]1CN(C)C(=O)c2ccc(NC(=O)C3CC3)cc2OC[C@@H](C)N(C(=O)c2ccccc2F)C[C@H]1C
→ -1.6, 6.0[16.7 µM]
COc1ccccc1CNC(=O)C[C@H]1C=C[C@H](NC(C)=O)[C@@H](CO)O1
→ -12.7, 8.0[16.7 µM]
C[C@@H]1CN([C@H](C)CO)S(=O)(=O)c2ccc(-c3cncnc3)cc2O[C@H]1CN(C)Cc1ccccn1
→ 2.3, 21.7[16.7 µM]
